# Beta2AR agonist: beta2AR agonists driving receptor internalization, primary screen, cell-based, FAP fluorogen, flow cytometry; Am2.2-beta2AR cells; reference of the scale not given here; response, % (test concentration not listed); 0.43% of 340,000 active;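 active = response above a set limit, near 3 SD of response in nonfluorescent compounds, cut at about 42% in these data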;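 also: stock transfer was 100 nL into about 11 µL; a reference agonist was the positive control; negative values mostly stem from fluorescent compounds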
# HNF4A DNA FP: change in binding of human HNF4A to DNA, primary screen, biochemical, fluorescence polarization, FITC-DNA | 1 h | activity change, % at 10 µM | 0.3% of 360,000 active | AID 1224865, 2016; in the data active = activity change above about 30%, passing the limit was not always enough;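 also: controls were the assay level and a saturating level of protein; the project sought stronger binding though the title names inhibitors; some compounds called inactive have numbers as strong as hits; positive values seem to mean higher polarization but the record does not say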
# Target sequence (P41235 whole entry, looked up): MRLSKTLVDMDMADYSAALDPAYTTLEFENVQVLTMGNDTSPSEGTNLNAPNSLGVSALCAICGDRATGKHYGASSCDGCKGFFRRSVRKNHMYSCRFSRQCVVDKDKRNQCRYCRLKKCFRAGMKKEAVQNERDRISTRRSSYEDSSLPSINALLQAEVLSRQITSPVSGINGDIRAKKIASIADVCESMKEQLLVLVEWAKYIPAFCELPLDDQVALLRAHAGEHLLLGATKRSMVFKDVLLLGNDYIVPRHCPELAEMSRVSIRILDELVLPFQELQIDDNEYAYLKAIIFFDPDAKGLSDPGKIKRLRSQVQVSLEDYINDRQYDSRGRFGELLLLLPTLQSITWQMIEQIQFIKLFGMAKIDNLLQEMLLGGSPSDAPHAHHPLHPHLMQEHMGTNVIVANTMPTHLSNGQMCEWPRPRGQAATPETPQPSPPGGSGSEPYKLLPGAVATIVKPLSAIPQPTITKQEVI
# ALR H2O2 inh: inhibitors of human ALR sulfhydryl oxidase, primary screen, biochemical, H2O2 detection, HRP-luminol luminescence, single point | FAD-linked sulfhydryl oxidase ALR (Homo sapiens), P55789 | purified ALR, DTT oxidation | inhibition, % (test concentration not listed) | 3.8% of 290,000 active;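 active = mean and each replicate at 75% or more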;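 also: stock transfer was 7.5 nL into about 7.5 µL; 0% = neutral wells and 100% = wells with inactivated enzyme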
# UCH37 inh: inhibitors of human UCH37 deubiquitinase, primary screen, biochemical, Ub-AMC cleavage, fluorescence. 0.33% of 330,000 active. purified proteasome/UCH37. inhibition, % (no concentration beside the values);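 active = mean of two replicates above 20%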;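 also: 0% = compound-free wells with enzyme and 100% = wells lacking proteasome; stock transfer was 100 nL into about 20 µL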
# Target sequence (Q9Y5K5 whole entry, looked up): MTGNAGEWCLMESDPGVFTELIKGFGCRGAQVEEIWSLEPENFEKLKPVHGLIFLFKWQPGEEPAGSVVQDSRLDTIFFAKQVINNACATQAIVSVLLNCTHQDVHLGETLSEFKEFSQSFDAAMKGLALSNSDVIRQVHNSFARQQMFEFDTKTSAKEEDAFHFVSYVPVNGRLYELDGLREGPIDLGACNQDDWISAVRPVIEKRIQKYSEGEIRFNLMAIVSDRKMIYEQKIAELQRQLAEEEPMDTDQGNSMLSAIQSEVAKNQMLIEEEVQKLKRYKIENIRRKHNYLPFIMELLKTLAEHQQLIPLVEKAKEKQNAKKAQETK
#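 Material: Human UCH37 enzyme supplied as purified proteasome complex | Schedule: 30 min preincubation with enzyme, 25 min cleavage at room temperature | Detection: AMC fluorescence 355/460 nm | Measure: % inhibition of Ub-AMC cleavage fluorescence | Controls: Wells without proteasome as full block, compound-free enzyme plus substrate as uninhibited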
# E coli growth: E. coli growth inhibition, primary screen, OD600; Escherichia coli growth, 23 h; active compounds read low; OD600 absorbance (no concentration beside the values); 0.21% of 330,000 active;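 active = OD600 absorbance below the run mean of sample wells minus 3.6 SD, in any replicate, cut at about 0.56 in these data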;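 also: stock transfer was 300 nL into about 60 µL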
# FGF22 binding: binders of human FGF22 protein, primary screen, FGF22 synaptogenesis inhibitor project, biophysical, thermal shift, single point. Fibroblast growth factor 22 (Homo sapiens), Q9HCT0. recombinant FGF22 thermal shift, SYPRO orange fluorescence; percent of sucrose octasulfate shift, DMSO zero. calls only at 9.99 µM. 1.5% of 340,000 active;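 active = melting point raised past a set limit in the mean and every replicate; three in four hits are not shown here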
# Target sequence (Q9HCT0 whole entry, looked up): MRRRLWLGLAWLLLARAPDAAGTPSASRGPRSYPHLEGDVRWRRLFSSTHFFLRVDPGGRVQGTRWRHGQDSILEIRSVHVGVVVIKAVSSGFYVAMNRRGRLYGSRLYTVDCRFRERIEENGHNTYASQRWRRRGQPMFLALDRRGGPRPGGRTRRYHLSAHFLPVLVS
# rRNA inh HTS: reduced GFP signal of wild-type E. coli, primary screen, bacterial rRNA inhibitor project, GFP/RFP fluorescence, OD600, single point | GFP signal change (wild-type ribosome), % (no concentration beside the values) | 1.6% of 350,000 active | E. coli WT GFP vs humanized-ribosome RFP mutants, 24 h; active compounds read low; DMSO median 0, no signal -100;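 active = significant combined selectivity score with lowered wild-type GFP, culture density cut under 30%, mutant RFP and density less affected; inactive = any of these conditions unmet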; also: one replicate is shown; some compounds called inactive have numbers as strong as hits
# rRNA inh HTS OD600: recorded beside rRNA inh HTS, whose call it bears; OD600 change, %; measured here: OD600 growth;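 optical density of the mix in the first replicate; 0 = DMSO median and -100 = no signal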
# rRNA inh HTS RFP: recorded beside rRNA inh HTS, whose call it bears; RFP signal change, %; measured here: RFP humanized mutant strains;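 first replicate; 0 = DMSO median and -100 = no signal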
# The depositor's hits bear a star; i = inactive; . = no result given.
SMILES,Beta2AR agonist,HNF4A DNA FP,ALR H2O2 inh,UCH37 inh,E coli growth,FGF22 binding,rRNA inh HTS,rRNA inh HTS OD600,rRNA inh HTS RFP
COc1ccc2cc(/C=N/NC(=O)CSCc3ccc([N+](=O)[O-])cc3)c(Cl)nc2c1,0,23,99*,.,.,i,-4,-3,-9.2
CCCc1cc(C(=O)N2CCCC(N3CCN(c4ccc(F)cc4)CC3)C2)no1 (stereo unspecified),2,-5.6,98*,0.9,0.69,i,-19,-19,-3.8
O=C(C=Cc1ccccc1)c1cccs1,0,3.0,.,.,.,i,-22*,-1.1*,3.8*
O=C(c1ccccc1-c1ccccc1)N1CCN(c2ccccn2)CC1,-10,-0.4,-4,0.6,0.67,.,.,.,.
CCN1C(=O)c2cccc3c(S(=O)(=O)NCc4cccnc4)ccc1c23,-4,-2.0,.,-294,0.78,.,.,.,.
COCC(C)n1c(SCC(=O)N(C)C2CCS(=O)(=O)C2)nc2ccccc2c1=O (stereo unspecified),-1,1.5,.,1.7,0.67,i,2,-2,0.7
Cc1cnc(C(=O)OCC(=O)NCc2ccc3c(c2)OCO3)cn1,2,0.1,-4,2.8,0.67,i,-2,10,0.7
O=C(Nc1cc(Cl)ccn1)C1CCN(S(=O)(=O)c2cccs2)CC1,-2,2.0,.,1.5,0.72,.,.,.,.
CCN(CC)CCNC(=O)c1c(C)oc2cc(Br)c(OC)cc12,8,-6.0,-9,3.8,0.65,.,.,.,.
COc1cccc(C(=O)n2cnnc2N)c1OC,1,-2.1,2,4.1,0.65,i,.,.,.
CCOC(=O)C1CCN(C(=O)CN2C(=O)c3ccccc3S2(=O)=O)CC1,-1,1.1,.,3.6,0.65,i,8,11,0.1
CC(C)C(=O)N/N=C/c1ccc(OCc2ccccc2)cc1,4,-1.6,-4,.,.,.,.,.,.
CC(=O)c1c(NC(=O)c2ccccc2)[nH]c(-c2ccccc2)nc1=S,12,-0.8,0,4.6,0.66,i,4,15,-0.5
CCCCOc1ccc(-c2nnn(C(C)C(=O)OCC)n2)cc1 (stereo unspecified),4,5.0,-3,2.3,0.75,.,.,.,.
CCCc1nc2c(C)cc(Br)cn2c1Cc1cccc(F)c1,.,3.0,.,.,.,i,-10,-25,0.6
COc1ccc(S(=O)(=O)NC2CCCC2)cc1Cl,-6,-4.7,2,2.1,0.71,i,2,2,1.7
COC(=O)c1ccc(NC(=O)C(=O)N2CCN(C(=S)Nc3cccc(C)c3C)CC2)cc1,-1,1.0,1,0.4,0.68,.,.,.,.
CC(=O)N=C1SC2CS(=O)(=O)CC2N1c1cccc(Cl)c1Cl (stereo unspecified),-2,0.0,-3,1.2,0.75,.,.,.,.
O=C(CCCN1C(=O)c2ccccc2C1=O)Nc1cccc(S(=O)(=O)NC2=NCCC2)c1,0,4.8,-4,0.0,0.68,i,3,15,-9.9
COCCNC(=S)Nc1ccc(S(=O)(=O)Nc2cnc3ccccc3n2)cc1,-1,3.1,-9,-5.0,0.69,i,3,-2,-9.9

# 3 entries drawn at random from those above:
SMILES,Beta2AR agonist,HNF4A DNA FP,ALR H2O2 inh,UCH37 inh,E coli growth,FGF22 binding,rRNA inh HTS,rRNA inh HTS OD600,rRNA inh HTS RFP
COCCNC(=S)Nc1ccc(S(=O)(=O)Nc2cnc3ccccc3n2)cc1,-1,3.1,-9,-5.0,0.69,i,3,-2,-9.9
O=C(Nc1cc(Cl)ccn1)C1CCN(S(=O)(=O)c2cccs2)CC1,-2,2.0,.,1.5,0.72,.,.,.,.
CC(=O)c1c(NC(=O)c2ccccc2)[nH]c(-c2ccccc2)nc1=S,12,-0.8,0,4.6,0.66,i,4,15,-0.5

# In a second layout: results already given
# Below each SMILES: Beta2AR agonist | HNF4A DNA FP | ALR H2O2 inh | UCH37 inh | E coli growth | FGF22 binding | rRNA inh HTS | rRNA inh HTS OD600 | rRNA inh HTS RFP
O=C(C=Cc1ccccc1)c1cccs1
→ 0 | 3.0 | . | . | . | i | -22* | -1.1* | 3.8*
O=C(c1ccccc1-c1ccccc1)N1CCN(c2ccccn2)CC1
→ -10 | -0.4 | -4 | 0.6 | 0.67 | . | . | . | .
CCN1C(=O)c2cccc3c(S(=O)(=O)NCc4cccnc4)ccc1c23
→ -4 | -2.0 | . | -294 | 0.78 | . | . | . | .
COCC(C)n1c(SCC(=O)N(C)C2CCS(=O)(=O)C2)nc2ccccc2c1=O (stereo unspecified)
→ -1 | 1.5 | . | 1.7 | 0.67 | i | 2 | -2 | 0.7
Cc1cnc(C(=O)OCC(=O)NCc2ccc3c(c2)OCO3)cn1
→ 2 | 0.1 | -4 | 2.8 | 0.67 | i | -2 | 10 | 0.7

# More records follow:
SMILES,Beta2AR agonist,HNF4A DNA FP,ALR H2O2 inh,UCH37 inh,E coli growth,FGF22 binding,rRNA inh HTS,rRNA inh HTS OD600,rRNA inh HTS RFP
CC(=O)N1c2c(cc(Br)cc2S(=O)(=O)NCc2cccnc2)CC1C (stereo unspecified),-1,8.1,-16,1.2,0.69,.,.,.,.
COc1ccc(OC)c(/C=N/NC(=O)CCCC(=O)Nc2cccc(Br)c2)c1,3,1.1,1,.,.,i,-28,-31,-1.0
CCOC(=O)N1CCC(N(CCN(C)C)C(=S)Nc2ccccc2OC)CC1,8,0.3,-12,5.6,0.72,i,8,0,-2.4
CC(C)Oc1cccc(C(=O)Nc2ccccc2N2CCOCC2)c1,12,2.4,-3,-0.5,0.7,.,.,.,.
CSc1nc2ccsc2c(=O)n1-c1cccnc1,1,-1.8,4,2.4,0.72,i,7,7,3.3
CN1CCC(=NNC(=O)C(=O)Nc2ccc(F)cc2)CC1,10,-2.7,2,-2.4,0.69,i,8,11,1.4
CCC(C)[C@H]1CNCCN1CC1(c2ccccc2)CC1 (stereo partly specified),4,-1.4,3,-1.6,.,i,6,2,-4.9
COC(=O)c1ccccc1Sc1c(/C=N/OCc2ccc(Cl)cc2)c(C(F)(F)F)nn1C,12,3.0,-1,.,.,.,.,.,.
O=C(O)c1ccccc1C(=O)NNc1ccc(Cl)cc1,-2,-4.9,99*,1.1,0.67,.,.,.,.
CCCOc1ccc(N2C(=O)CC(N(CCc3ccc(OC)cc3)C(=O)c3cccc(F)c3)C2=O)cc1 (stereo unspecified),1,-0.6,-6,2.1,0.71,.,.,.,.
NNC(=O)CN1C(c2ccccc2Br)=Nc2ccc(Br)cc2C1c1ccccc1 (stereo unspecified),7,-4.5,-17,4.1,0.7,.,.,.,.
Cc1cccc(C(=O)NC2CC(C)(C)NC(C)(C)C2)c1,-6,-2.9,-1,0.1,0.68,.,.,.,.
O=C(NCCc1c[nH]c2ccccc12)c1ccc([N+](=O)[O-])o1,.,7.0,.,.,.,i,4,15,3.4
COc1ccc(N(CC(=O)N/N=C/c2ccco2)S(=O)(=O)c2ccccc2)cc1,-2,-5.9,-1,.,.,.,.,.,.
COc1ccc(CCNC(=O)C(NS(=O)(=O)c2cccc3nsnc23)C(C)C)cc1OC (stereo unspecified),0,-0.3,-20,4.5,0.69,i,4,8,-2.9
CC(c1ccco1)N(C(=O)Nc1ccc(Cl)cc1)c1ccccn1 (stereo unspecified),1,-4.4,-1,-0.1,0.68,.,.,.,.
C/C(=N\NC1=NCCN1)c1ccc(N)c([N+](=O)[O-])c1,-1,1.7,42,.,.,i,11,7,-1.5
CC(=O)Nc1sc(C)c(C)c1C(=O)Nc1ccc(C)cc1,-1,0.6,2,2.9,0.67,.,.,.,.
Cn1nccc1C(=O)NC(=S)Nc1cc(Cl)cc(Cl)c1,0,0.6,4,2.4,0.66,i,-15,-14,0.7
COc1ccc(/C=N/NC(=O)C(=O)N2CCCCCC2)cc1[N+](=O)[O-],0,-2.3,4,.,.,i,9,-1,-0.5
CC(C)C(=O)N1CCN(c2ccc(NC(=O)c3ccc4c(c3)OCCO4)cc2)CC1,3,-4.9,-4,-11,0.73,i,9,8,-0.5
COc1ccccc1OCCC(=O)OCC(=O)c1c(N)n(C)c(=O)n(C)c1=O,3,1.4,-5,2.8,0.73,i,-7,-4,-2.9
CCN1CCN(c2cc(C)c3cc(NC(=O)CCC(=O)N4CCN(c5ccccc5)CC4)ccc3n2)CC1,7,5.3,91*,-70,0.66,i,-2,0,2.6
COc1ccc(Cc2nc(-c3ccc(Br)o3)no2)cc1OC,-11,6.4,17,4.1,0.71,i,3,-20,-2.2
C=CCC1Cc2c(cccc2[N+](=O)[O-])C(CC=C)N1 (stereo unspecified),1,0.7,.,-0.1,0.66,i,3,-5,3.6
Cc1ccc(-c2nc3ccccc3c(=O)n2NC(=O)c2cccs2)cc1,-2,-3.5,.,4.4,0.72,i,.,.,.
CC(C)(C)NC(=O)C(c1ccccc1)N(Cc1ccco1)C(=O)c1csnn1 (stereo unspecified),-1,-0.4,22,1.0,0.73,.,.,.,.
CCC(=O)Nc1ccc(-c2nnc(SCc3ccc(C(=O)Nc4nccs4)cc3)n2CC)cc1,-10,2.3,-6,0.3,0.75,.,.,.,.
CCN1C(=O)c2cccc3c(N)ccc(c23)C1=O,-6,-101,2,.,.,i,86,-6,-8.2
CCOC(=O)CSc1nc(=O)n2ccccc2n1,1,1.1,-18,2.4,0.67,i,12,6,-2.1
Cc1ccc(C(=O)NCC(=O)NCCc2ccc(S(N)(=O)=O)cc2)s1,-6,-4.8,-6,0.1,0.68,i,12,7,-4.7
CC(C)CC1=NN(C(=O)c2ccco2)C(O)(C(F)(F)F)C1 (stereo unspecified),6,-23,-11,2.4,0.64,.,13,17,-1.2
CC(=O)c1ccc(S(=O)(=O)N2CCN(CCOc3ccc(Br)cc3)CC2)cc1,2,-1.1,-4,-0.4,0.61,i,.,.,.
O=C(c1ccc(N2CCOCC2)c([N+](=O)[O-])c1)N1CCN(Cc2ccccc2)CC1,4,-1.1,-3,6.4,0.71,i,0,1,-0.5
COc1ccc(N=CC2=C(O)c3ccccc3C2=O)cc1,-3,1.2,-4,3.4,0.77,.,.,.,.
COc1ccc(CNC(=O)NCc2ccc(OC)c(OC)c2)cc1OC,4,0.6,-5,-0.7,0.69,.,.,.,.
COc1ccc(CN(C)C(=O)COC(=O)c2c(C)nn(-c3ccc(F)cc3)c2Cl)cc1,12,-0.6,-1,-0.6,0.7,i,-34,-36,-6.4
O=C(NCc1ccccn1)c1cc2n(n1)C(C(F)(F)F)CC(c1ccco1)N2 (stereo unspecified),1,5.9,0,5.1,0.79,.,.,.,.
CCOc1ccc(NC(=O)CSc2nc3ccccc3c(=O)n2Cc2cccs2)cc1,-6,0.1,-4,0.5,0.7,.,.,.,.
CCCNC(=O)/C=C/c1ccc(S(=O)(=O)Nc2ccccc2OC)cc1,13,-0.8,-3,2.0,.,i,-21,-22,-1.7
CN(C)S(=O)(=O)c1ccc(S(=O)(=O)NCc2ccc3c(c2)OCO3)cc1,6,1.6,.,5.6,0.65,.,10,4,-0.1
O=C(COC(=O)c1ccccc1NC(=O)c1ccccc1)c1cccc([N+](=O)[O-])c1,-1,3.0,.,6.1,0.73,.,.,.,.
CC(=O)Nc1ccc(C23CC4CC(CC(C4)C2)C3)cc1,10,6.7,-31,0.9,0.7,i,-7,-8,-2.5
Cc1cc(C)c2[nH]c(=O)c(CN(CC3CCCO3)C(=S)Nc3ccccc3)cc2c1 (stereo unspecified),1,1.1,-7,-11,0.68,.,.,.,.

# Assay outcomes: PubChem, several laboratories

# These rows are one share of the data; rates above refer to the full screens.
